Lassa entry inh = Lassa virus entry inhibition; Potency, µM (top dose mostly 37.9 µM), inactives show at the top dose activity change, negative = inhibition, usual class: inhibitors; Lassa virus pseudotype entry inhibition, cell reporter; control for the full effect not named in the record; hit rate 1.2% among 300,000; AID 540256; active means well fitted inhibition curve with a large enough effect; inconclusive means small, poorly fitted or top-dose-only effect, or effect the other way; inactive means flat fitted curve, though single readings scatter; tested in HEK293 cells; also: % is scaled to controls: 0 for no effect and ±100 for the full control effect; nearly all actives have a fitted effect of over 50% in size; luciferase read-out
Cruzain noTriton = cruzain (T. cruzi) inhibition without detergent; P25779; purified cruzain, Z-FR-AMC fluorescence, no detergent; Potency, µM, without a hit: max response, negative = inhibition, usual class: inhibitors; hit rate 2.3% among 200,000; AID 1476;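 also: plate controls were enzyme without inhibitor for no effect and buffer without enzyme for full effect; nearly all actives have a fitted effect of over 40% in size; top concentration of the series not given in the record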
Target sequence (P25779 123-467 limits assumed): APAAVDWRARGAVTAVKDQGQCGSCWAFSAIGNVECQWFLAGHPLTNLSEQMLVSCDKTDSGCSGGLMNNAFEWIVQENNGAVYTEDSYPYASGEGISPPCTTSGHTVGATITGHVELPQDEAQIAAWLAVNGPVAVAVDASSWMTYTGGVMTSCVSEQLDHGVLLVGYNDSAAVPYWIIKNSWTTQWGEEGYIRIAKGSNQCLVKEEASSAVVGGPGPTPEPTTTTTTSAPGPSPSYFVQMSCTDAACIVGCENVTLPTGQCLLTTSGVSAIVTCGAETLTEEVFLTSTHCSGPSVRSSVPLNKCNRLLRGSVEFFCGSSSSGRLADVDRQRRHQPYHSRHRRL
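Detergent-free condition (0.00005% Triton X-100) in acetate buffer pH 5.5 with DTT. 1.5 nM enzyme and compound were pre-mixed 15 min, then 2 uM Z-FR-AMC substrate added; reaction progress from fluorescence change between first and third reads (60 s).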
NS1 function inh = inhibitors of influenza NS1 protein function; hit rate 0.4% among 270,000; Potency, µM (top dose mostly 46.1 µM), without a hit: top-dose activity, positive = more growth; AID 2326; S. cerevisiae slowed by influenza A NS1, growth recovery by OD600; active means well fitted rising curve with a large enough effect; inconclusive means small, poorly fitted or top-dose-only effect; inactive means no such curve, though single readings can be large or run the other way; also: nearly all actives have a fitted effect of over 50% in size
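Compounds were scored for reversing the slow growth caused by influenza A NS1 in S. cerevisiae, measured by optical density at 600 nm. Assay medium contained 2% galactose at pH 6.0; NS1-free yeast of the same strain were the positive control.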
RE007 growth inh = less growth of the S. pombe RE007 Vpr strain. S. pombe RE007 Vpr strain, BacTiter-Glo ATP luminescence, 24 h; control for the full effect not named in the record. Potency, µM (highest dose often 92.2 µM), inactives show top-dose activity change, negative = less growth. hit rate 0.21% among 360,000. AID 651644; active = well fitted falling curve with a large enough effect; inconclusive = small, poorly fitted or top-dose-only effect; inactive = no such curve, though single readings can be large or run the other way;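 also: % is scaled to controls: 0 for no effect and ±100 for the full control effect; nearly all actives have a fitted effect of over 50% in size; the assay follows cell death caused by Vpr and the record does not say whether a fall means rescue or toxicity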
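Fission yeast RE007 carrying one integrated HIV-1 vpr copy, seeded at OD 0.01 in PMG+AL medium with 23 nL pinned compound. Grown 24 h at 30 degrees; viability read by BacTiter-Glo luminescence after 5 min.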
Marburg entry inh = blocks Marburg virus binding to or entry into cells; Marburg virus pseudotyped entry inhibition, cell reporter; control for the full effect not named in the record; about a third of the inactives were read at about 46 µM; Potency, µM (titrated, usually from 37.8 µM), for the others: top-dose activity change, negative = inhibition, most hits filed as inhibitors; hit rate 1.8% among 300,000; AID 540276; active = well fitted inhibition curve with a large enough effect; inconclusive = small, poorly fitted or top-dose-only effect, or effect the other way; inactive = flat fitted curve, though single readings scatter; tested in HEK293 cells; about a fifth of its hits are not listed in these tables; also: % is scaled to controls: 0 for no effect and ±100 for the full control effect; luciferase read-out
SARS PLpro yeast = inhibitors of SARS-CoV papain-like protease in yeast; S. cerevisiae expressing SARS-CoV PLpro, growth rescue; control for the full effect not named in the record; hit rate 0.19% among 330,000; Potency, µM (series often up to 32.9 µM), without a hit: at the top dose activity, positive = growth rescue; active means well fitted rising curve with a large enough effect; inconclusive means small, poorly fitted or top-dose-only effect; inactive means no such curve, though single readings can be large or run the other way; also: 0% is about no effect; nearly all actives have a fitted effect of over 55% in size; growth read by luminescence after 48 h
Cruzain inh Det = inhibitors of Trypanosoma cruzi cruzain with detergent; P25779; purified cruzain, Z-FR-AMC fluorescence, 0.01% Triton; Potency, µM, inactives show max response, negative = inhibition, most hits filed as inhibitors; hit rate 0.43% among 200,000;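 also: plate controls were neutral wells for no effect and buffer without enzyme for full effect; nearly all actives have a fitted effect of over 40% in size; top concentration of the series not given in the record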
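Read-out: AMC fluorescence (360 nm excitation, 450 nm emission), four reads over 2 min, first-to-third difference used. Conditions: cruzain 1.5 nM, Z-FR-AMC 2 uM, pH 5.5 acetate, 5 mM DTT, 0.01% Triton X-100.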
StopGo reporter = FMDV 2A StopGo reporter, luciferase signal | Potency, µM (highest dose often 57.9 µM), inactives show top-dose signal change, negative = less light | human cells with a luciferase reporter of 2A StopGo recoding; control for the full effect not named in the record | hit rate 1.2% among 410,000; active = well fitted falling curve with a large enough effect; inconclusive = small, poorly fitted or top-dose-only effect; inactive = no such curve, though single readings can be large or run the other way; tested in HEK293T cells; also: % is scaled to controls: 0 for no effect and ±100 for the full control effect; nearly all actives have a fitted effect of over 45% in size; luciferase light after 4 h
* hit, by the source's call; ? = inconclusive; nt = not tested or not shown; & = joins results of further samples; [ ] = remark or other dose. Unless noted, calls follow the shape of the dose curve; as a rule, active = well fitted curve in the direction sought with a large enough effect; inconclusive = small, poorly fitted or top-dose-only effect, or another doubt; inactive = no such curve, though single readings can be large; an effect the other way counts as inactive or inconclusive. Potency is read from the fitted curve at half-maximal effect. Rows are unselected; about 4.5% have a hit in one of these screens.

SMILES	Lassa entry inh	Cruzain noTriton	NS1 function inh	RE007 growth inh	Marburg entry inh	SARS PLpro yeast	Cruzain inh Det	StopGo reporter
CC(C)CCNC(=O)CN(CC1CCCO1)C(=O)CCC(=O)Nc1ccccn1 (configuration not stated)	1%	4%	-1%	5%	12%	-9%	-1.3%	-18%
O=C(NC1CC1)c1ccc(Cl)c(S(=O)(=O)N2CCOCC2)c1	0%	nt	5%	2%	9%[46.1 µM]	2%	nt	20%
O=C(CCNC(=O)Cn1cnc2ccccc2c1=O)NCC1CCCO1 (configuration not stated)	2%	nt	nt	-19%	13%	2%	nt	-5%
Cc1ccccc1N/C(=C(/C(Cl)=C(Cl)Cl)[N+](=O)[O-])n1nnc2ccccc21	0%	-3%	-8%	-7%	8%	nt	-16%	26%
O=C(Nc1nc(-c2ccccn2)cs1)c1ccc2c(c1)OCCO2	nt	nt	9%	-19%	nt	-3%	nt	-15%
COCCN1C(=NCCCOC(C)C)N[C@@H](c2ccccc2)C(C(=O)OC)=C1C	nt	nt	4%&-15%	0%	nt	15%&2%	nt	-1%
CCCCCCOc1ccc(C(=O)n2cnc(N)n2)cc1	7%	5%	-84%	2%	-1%&-1%	-9%	2.7%	-1%
O=C(CSc1nc2c([nH]c3ccccc32)c(=O)n1-c1cccc(Cl)c1)N1CCCC1	1%[46.1 µM]	6%	nt	nt	nt	nt	1.2%	-3%
O=C(COc1ccccc1)NC(=S)N1CCc2ccccc21	19%	?	-33%	-21%	-3%	-25%	-5.3%	67%[activator]
CNC(=O)CN1C(=O)CSc2ncccc21	nt	7%	-13%	-3%	nt	9%	-1.4%	-24%
CCC(=O)N1CCN(c2ccccc2NC(=O)c2cccs2)CC1	?	nt	-6%	-12%	-2%	1%	nt	-26%
COc1cccc(NC(=O)CN(C)S(=O)(=O)c2cccs2)c1	19%[46.1 µM]	-16%	nt	nt	2%[46.1 µM]	nt	-1.9%	31%[activator]
Cc1ccc(S(=O)(=O)c2nnn3c2nc(NCc2cccs2)c2sccc23)cc1	?	-1%	nt	nt	nt	nt	-7.7%	-6%
CC(=O)N[C@@H](Cc1c[nH]c2ccccc12)C(=O)OCc1ccc(C#N)cc1	-12%	nt	-11%	8%	13%[46.1 µM]	0%	nt	-11%
CCc1c(C)nc(Nc2nc(C)c3cc(OC)ccc3n2)[nH]c1=O	-22%	?	-15%	8%	?	8%	-6.5%	15%
Cc1cc(C)cc(NS(=O)(=O)c2ccc3c(c2)c(=O)n(C)c(=O)n3C)c1	?	-7%	4%	-13%	?	-6%	-2.9%	nt
Cn1c(=O)[nH]c(=O)c2c1[nH]c(=S)n2CCCc1ccccc1	4%[46.1 µM]	nt	-3%	8%	-2%[46.1 µM]	-2%	nt	33%
COc1cccc2c(SCC(=O)N/N=C/c3ccccc3)cc(C)nc12	-22%	-5%	-5%	nt	-19%	-13%	-11%	-17%
COc1c(Cl)cc(C(=O)Nc2cc(-c3nc4ccccc4[nH]3)ccc2C)cc1Cl	?	-29%	nt	nt	nt	nt	-2.8%	?
Cc1ccc(CNC(=O)Cc2csc(Nc3nc(=S)[nH]c4ccccc34)n2)cc1	nt	10µM*	4%	nt	-2%	-1%	-0.7%	nt
CCC(=O)Nc1ccc(N2CCCCC2)cc1	14%	-2%	3%	14%	17%	15%	1.0%	68%[activator]
Cc1ccc(S(=O)(=O)NCC23C=CC(O2)C2C(=O)N(c4ccccc4)C(=O)C23)cc1 (configuration not stated)	-30%	-5%	-36%	8.9µM*	-7%	-29%	0.6%	-5%
O=C(NNC(=O)c1ccccc1OCc1ccccc1Cl)c1csc(N2CCOCC2)n1	nt	nt	-5%	10%	nt	0%	nt	-8%
CC(C)CN1C(=O)C(=O)N(CC(=O)c2ccc[nH]2)C1=O	3%	nt	nt	4%	15%	-2%	nt	3%
COc1ccc(N=Nc2c(C)n[nH]c2C)cc1	6%	nt	-29%	-1%	20%[46.1 µM]	-7%	nt	11%

Following part.
SMILES	Lassa entry inh	Cruzain noTriton	NS1 function inh	RE007 growth inh	Marburg entry inh	SARS PLpro yeast	Cruzain inh Det	StopGo reporter
CCOC(=O)c1nc(NNC(C)=O)sc1C	2%	nt	nt	12%	6%[46.1 µM]	0%	nt	11%
Cc1nc(-c2c(C(F)(F)F)noc2-c2ccc(O)cc2O)cs1	2%	0%	5%	-4%	0%	-2%	-15%	?
Cc1ccc(OCCN2CCCCCC2)c(C)c1	-29%	8%	-1%	1%	1%	5%	-1.5%	10%
NC(=O)C1CCN(CC(=O)N2c3ccccc3CCc3ccccc32)CC1	2%	-4%	3%	-4%	-14%	0%	2.0%	-7%
CCOc1ccc(C(=O)Nc2cccc3ncccc23)cc1Cl	-2%	nt	1%	0%	-15%	0%	nt	-23%
CCOC(=O)c1c(C=O)c(C)n(Cc2ccc(Cl)cc2)c1C	-5%	-7%	-119%	20%	-3%	-27%	-6.8%	?
CCOCCCNC(=O)c1c(NC(=O)c2cc(=O)c3cc(C)c(C)cc3o2)sc2c1CCC2	0%[46.1 µM]	-5%	nt	nt	4%[46.1 µM]	nt	2.4%	-10%
CCc1ccccc1NC(=O)C1(S(=O)(=O)c2ccc(Cl)cc2)CC1	21%[46.1 µM]	-10%	nt	nt	9%[46.1 µM]	nt	-5.0%	-4%
O=C(CSc1nnc(CN2CCCC2)n1-c1ccc(F)cc1)c1ccc2c(c1)OCO2	4%[46.1 µM]	nt	nt	-19%	-24%	-2%	nt	12%
Cc1ccc(OCC(=O)NC(=S)Nc2ccc(Br)c(C)n2)cc1	-4%	16µM*	4%	-16%	2%	7%	4.1%	nt
CC1(C(=O)N2CCN(c3ccc([N+](=O)[O-])cc3)CC2)CC1(Cl)Cl (configuration not stated)	nt	nt	5%	1%	nt	2%	nt	20µM*
CC(C)CN(CC(C)C)CC(O)COc1ccccc1Br (configuration not stated)	?	-8%	4%	0%	?	6%	-2.5%	?
COc1cccc(CNC(=O)CCC2CCCN(C(=O)C3=CC(=O)CC(C)(C)O3)C2)c1 (configuration not stated)	6%	nt	1%	21%	20%[46.1 µM]	1%	nt	-2%
Cc1ccc2onc(CNC(=O)N3CCN(c4cccc(C(F)(F)F)c4)CC3)c2c1	4%[46.1 µM]	-1%	nt	nt	nt	nt	-1.9%	-3%
O=C(NCC(=O)N(c1cccnc1)C(C(=O)NC1CCCC1)c1ccccc1F)c1ccco1 (configuration not stated)	3%	nt	7%	2%	14%[46.1 µM]	2%	nt	0%
Cn1c(C2=C(O)CN(Cc3ccccc3)C2=N)nc2ccccc21	nt	nt	1%	0%	nt	1%	nt	13%
Cc1ccc(NC(=O)c2oc3ccc(S(=O)(=O)N4CCCCCC4)cc3c2C)cc1Cl	-10%[46.1 µM]	4%	nt	nt	nt	nt	1.6%	?
Cc1ccc2c(CN3CCCCC3C)cc(=O)oc2c1C (configuration not stated)	-5%[46.1 µM]	nt	-4%	-21%	-3%[46.1 µM]	1%	nt	-10%
COc1ccc(Nc2ncnc3sc4c(c23)CCCC4)cc1	?	-10%	nt	nt	nt	nt	-3.9%	-9%
CSc1nc(Cl)c(Cc2ccc(OC(C)C)cc2)c(N2CCOCC2)n1	?	1%	6%	1%	?	-20%	-0.7%	?
CCN1CCN(c2nc(-c3cccs3)nc3ccccc23)CC1	22%	-1%	-1%	-18%	24%	9%	-8.8%	-17%
CCn1c(SCc2nc3ccccc3nc2C)nnc1-c1cccs1	11%	2%	-20%	2%	-23%	-3%	5.0%	-28%
COc1ccc(/C=C2\SC(=O)N(CCC(=O)N3CCCCC3CCO)C2=O)cc1 (configuration not stated)	0%[46.1 µM]	nt	-16%	-3%	0%[46.1 µM]	-3%	nt	-14%
Cc1ccc(C(=O)/C=C/c2ccco2)c(O)c1	1%	-15%	6%	-21%	?	?	-9.4%	35%[activator]
Cc1ccc(-c2nn(-c3ccc(F)cc3)cc2C(=O)N(C)CC(=O)Nc2ccc(N3CCOCC3)cc2)cc1	8%	nt	nt	0%	-17%[46.1 µM]	-4%	nt	-6%

Carrying on:
SMILES	Lassa entry inh	Cruzain noTriton	NS1 function inh	RE007 growth inh	Marburg entry inh	SARS PLpro yeast	Cruzain inh Det	StopGo reporter
CNC(=S)Nc1ccc(C23CC4CC(CC(C4)C2)C3)cc1	?	-13%	-1%	-5%	?	-70%	-8.7%	-1%
CCCc1[nH]nc2c1C(c1ccc(OC(=O)N3CCOCC3)c(OC)c1)C(C#N)=C(N)O2 (configuration not stated)	1%	25%	-9%	-2%	-28%	5%	-2.0%	nt
CCc1cc2c3c(c1)C(C)CC(C)(C)N3C(=O)C2=O (configuration not stated)	?	-3%	-38%	5%	-4%	-29%	-4.5%	-4%
CCOC(=O)C1(CCc2ccccc2)CCN(Cc2cc(OC)c(OC)cc2OC)CC1	nt	nt	-7%	0%	nt	-3%	nt	?
O=C(NCCCN1CCC(Cc2ccccc2)CC1)C1CC(=O)N(C2CCCC2)C1 (configuration not stated)	nt	-1%	-1%	-3%	-1%	2%	1.8%	-15%
O=C(Nc1ccc(Cl)cc1)c1ccc2c(c1)OCO2	?	-7%	-40%	-1%	?	-4%	5.6%	4%
COc1ccc(-c2nn(-c3ccccc3)cc2/C=N/NC(=O)c2ccc3c(c2)OCO3)cc1	nt	?	5%	nt	2%	3%	-4.0%	nt
Cc1ccc(NC(=O)NC(=O)N(c2ccccc2)S(C)(=O)=O)cc1	20%	6%	?	2%	1%	4%	1.5%	50%[activator]
Cc1cc(C(=O)NNC(=O)c2ccc(C)c([N+](=O)[O-])c2)c(C)o1	-9%	nt	nt	-10%	-19%[46.1 µM]	-3%	nt	-21%
CC(=O)c1cn(C2OC(CO)C3OC(C)(C)OC32)c(=O)n(C)c1=O (configuration not stated)	6%	nt	nt	1%	0%[14.2 µM]	nt	nt	-15%
COC(=O)CC1=C(C(=O)OC)C(c2cc(OC)c(OC)cc2OC)C(C#N)=C(N)O1 (configuration not stated)	3%	0%	-1%	-4%	16%	-2%	-0.6%	7%
C/C(=N/NS(=O)(=O)c1ccc(C)cc1)c1cccc(NC(=O)c2cccc(Cl)c2)c1	3%	-21%	12%	-16%	?	-10%	-3.9%	-8%
CCOC(=O)c1c(C)n(C)c2ccc(OCC(O)Cn3nc(C)cc3C)cc12 (configuration not stated)	-10%	?	-56%	-3%[3.69 µM]	?	-2%	-4.9%	-24%
COc1ccccc1OCC(=O)Nn1c(=S)[nH]c2ncccc2c1=O	-11%	5%	9%	1%	-14%	-9%	-2.9%	-3%

Screening results as filed in PubChem BioAssay.
